Hedgehog cleavage – Hh protein inhibition, biochemical readout – plate reader, single concentration, primary screen (AID 588832) | 8,000 tested, under 10 active | Biochemical plate reader assay, Hedgehog inhibition; hits give high values | inhibition, % at 30.3 µM; in the data active = inhibition from about 57%;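 also: 0% = neutral control wells and 100% = positive control wells; cholesterol-driven self-cleavage of fly hedgehog protein by fluorescence polarization; read one hour after cholesterol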
* marks the source's active call; other numbers are inactive results. These rows are one share of the data (hit frequency here may not be typical).

Structure	Hedgehog cleavage
Cc1cccc(NC(=O)c2cc(S(=O)(=O)N3CCc4ccccc43)cn2C)c1	6.7
CCc1ccc(N(CC)C(=O)c2ccc3c(Cl)c4c(nc3c2)CCC4)cc1	7.7
Cc1ccsc1C1NC(=O)c2c(sc3c2CCN(C)C3)N1 (centres undefined)	-3.6
CCOc1ccc(-n2c(SCC(=O)Nc3ccc4c(c3)OCO4)nc3c(c2=O)SCC3)cc1	-5.8
O=c1c2ccccc2oc2ccccc12	6.9
Cc1cccc(CCNC(=O)c2cc(S(=O)(=O)N3CCOCC3)cn2C)c1	0.0
CCOC(=O)c1c2n(c3ccc(OC(C)=O)cc13)CCC2	3.4
COc1ccc(CCNC(=O)CCC(=O)n2ncc3cc(C)ccc32)cc1OC	3.4
Cc1ccc(N2CCN(S(=O)(=O)c3ccc4c(c3)NC(=O)C(C)C(=O)N4)CC2C)cc1 (centres undefined)	9.6
CCOc1ccccc1NC(=O)CSc1nc2ccccc2nc1N1CCOCC1	7.0
COC(=O)c1cc(=O)n(CCc2ccccc2F)c(=Nc2ccc(F)c(Cl)c2)s1	0.0
COc1ccc(S(=O)(=O)N2CCN(C)CC2)cc1C	19.2
O=C(Cn1ncc2c1-c1ccccc1OC2)Nc1ccc(S(=O)(=O)N2CCCCC2)cc1	7.0
Cn1cc(S(=O)(=O)Cc2ccc(F)cc2)c2ccccc21	4.5
COc1cc(NS(=O)(=O)c2ccc3c(c2)C(C)(C)C(=O)N3C)cc(OC)c1	25.0
CCOc1ccc(CNC(=O)CS(=O)(=O)Cc2nc(-c3ccc(OC)cc3)oc2C)cc1	3.6
CCOc1ccc(CNC(=O)CCC(=O)n2ncc3ccc(Cl)cc32)cc1	9.0
Cc1cc(NC(=O)CSc2nc3c(c(=O)n2-c2ccccc2)SC(C)C3)no1 (centres undefined)	3.4
COCOc1ccc(-c2cc(=O)c3c(O)cc(OCOC)cc3o2)cc1	1.8
Cc1cccc(C)c1OCC(=O)N(Cc1ccco1)C1CCS(=O)(=O)C1 (centres undefined)	0.0

Next part, overlapping the part above by 6 compounds.
Structure	Hedgehog cleavage
COc1cc(NS(=O)(=O)c2ccc3c(c2)C(C)(C)C(=O)N3C)cc(OC)c1	25.0
CCOc1ccc(CNC(=O)CS(=O)(=O)Cc2nc(-c3ccc(OC)cc3)oc2C)cc1	3.6
CCOc1ccc(CNC(=O)CCC(=O)n2ncc3ccc(Cl)cc32)cc1	9.0
Cc1cc(NC(=O)CSc2nc3c(c(=O)n2-c2ccccc2)SC(C)C3)no1 (centres undefined)	3.4
COCOc1ccc(-c2cc(=O)c3c(O)cc(OCOC)cc3o2)cc1	1.8
Cc1cccc(C)c1OCC(=O)N(Cc1ccco1)C1CCS(=O)(=O)C1 (centres undefined)	0.0
CCOC(=O)c1ccccc1Nc1cc(C)nc2nc(C)nn12	0.0
COc1cccc(NC(=O)C2CCCN(S(=O)(=O)c3cccc4cccnc34)C2)c1 (centres undefined)	20.0
CCCc1cc(C(=O)Nc2sc(C)c(CC)c2C#N)no1	4.4
Cc1cc(C)n2nc(S(=O)(=O)N(C)c3ccccc3)nc2n1	6.5
Cc1nc2ccccc2c2oc(C(=O)NC3CC3)cc12	6.8
CC(C)(C)C(=O)NCCc1nc2ccccc2n1CC(=O)c1ccc(Cl)cc1	0.0
Cc1nc(C(=O)O)cc2c1[nH]c1ccccc12	9.0

Four compounds already listed, arranged by molecular weight, low to high:
Structure	Hedgehog cleavage
Cc1nc2ccccc2c2oc(C(=O)NC3CC3)cc12	6.8
CCCc1cc(C(=O)Nc2sc(C)c(CC)c2C#N)no1	4.4
CCOC(=O)c1ccccc1Nc1cc(C)nc2nc(C)nn12	0.0
COc1cccc(NC(=O)C2CCCN(S(=O)(=O)c3cccc4cccnc34)C2)c1 (centres undefined)	20.0
